RGS16-Gao HTS: regulators of human RGS16-Galphao interaction | AID 1441 | actives 0.38% (n = 220,000) | O15492+P09471 | binding response (% of control), % at 10 µM | bead-based flow cytometry RGS16-Galphao binding, fluorescence; actives lie on both sides;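 active = below 25% or above 175%, edge rows of some plates excepted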;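 also: Galphao activated by GDP with aluminum fluoride before binding; 100% = wells without compound and 0% = beads without RGS; some results beyond the cut were filed as inactive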
Target sequence (O15492 whole entry, looked up): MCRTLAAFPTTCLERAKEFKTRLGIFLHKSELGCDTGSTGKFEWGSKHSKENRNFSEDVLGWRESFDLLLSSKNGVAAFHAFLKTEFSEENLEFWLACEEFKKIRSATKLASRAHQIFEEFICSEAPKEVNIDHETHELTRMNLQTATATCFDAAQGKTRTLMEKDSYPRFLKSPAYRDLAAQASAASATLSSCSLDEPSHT
Target sequence (P09471 whole entry, looked up): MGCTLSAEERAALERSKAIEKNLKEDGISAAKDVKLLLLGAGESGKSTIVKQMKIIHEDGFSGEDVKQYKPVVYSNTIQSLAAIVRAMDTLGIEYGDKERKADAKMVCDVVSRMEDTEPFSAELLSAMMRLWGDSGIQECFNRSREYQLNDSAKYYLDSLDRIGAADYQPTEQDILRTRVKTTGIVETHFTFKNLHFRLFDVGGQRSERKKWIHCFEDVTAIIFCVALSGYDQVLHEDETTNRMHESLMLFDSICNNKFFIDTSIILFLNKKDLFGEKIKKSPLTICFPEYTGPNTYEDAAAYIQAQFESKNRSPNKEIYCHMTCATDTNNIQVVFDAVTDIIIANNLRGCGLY
GALR2 ag: agonists of human galanin receptor 2 (GALR2); GALR2-expressing cells, agonist activation read-out; activation, %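 (tested at 5 µM)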; actives 0.48% (n = 140,000); AID 803;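 active = above mean plus 3 SD of all compounds, about 5% in these data, not always enough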;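 also: 0% = vehicle buffer wells and 100% = reference agonist at full effect; tested in CHO reporter cells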
Target sequence (O43603 whole entry, looked up): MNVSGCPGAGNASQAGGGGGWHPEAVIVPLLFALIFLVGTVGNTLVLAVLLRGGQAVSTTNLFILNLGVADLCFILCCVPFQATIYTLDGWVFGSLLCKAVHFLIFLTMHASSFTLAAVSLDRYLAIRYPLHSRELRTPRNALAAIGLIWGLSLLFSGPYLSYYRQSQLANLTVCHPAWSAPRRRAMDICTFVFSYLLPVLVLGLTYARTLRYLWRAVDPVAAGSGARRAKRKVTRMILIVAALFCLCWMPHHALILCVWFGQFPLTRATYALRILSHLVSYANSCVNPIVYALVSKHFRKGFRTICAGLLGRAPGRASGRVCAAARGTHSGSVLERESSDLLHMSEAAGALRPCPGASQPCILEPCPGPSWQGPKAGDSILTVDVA
HSV augment: HSV replication enhancement | actives 0.005% (n = 220,000) | maximum fold increase | HSV replication augmentation in cells, fold increase | AID 1956;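 active = peak rise of 1.5-fold or more in the series; inconclusive = self-fluorescent or not available for retest; tested in PC3 cells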;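 also: first round at 10 µM; read as green reporter fluorescence; hits show the peak of a series up to 25 µM; 1 = signal of infected wells without compound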
Insulin prom inh: TRM-6 insulin promoter activity inhibition; TRM-6 cells (human fetal islet line), insulin promoter-eGFP reporter, imaging; reporter expression induced with tamoxifen; inhibition, % at 2 µM; actives 0.9% (n = 130,000);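 active = inhibition above the mean plus 3 SD, with well images judged a real hit on visual review, cut at about 60% in these data, passing the limit was not always enough; inconclusive = inhibition over the cutoff but images rejected on review; inactive = inhibition not above the cutoff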
PKD1 inh: PKD1 (human) kinase inhibition; inhibition, %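 (about 10 µM by stock and volumes)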; AID 797; Q15139; PKD1 kinase fluorescence polarization assay; actives 0.056% (n = 200,000);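 active = inhibition of 50% or more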;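 also: controls were vehicle for no effect and a reference inhibitor for full effect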
Insulin prom inh cell count: recorded beside Insulin prom inh, whose call it bears; normalized cell count, %; measured here: cell count, toxicity; reference of the scale not given here;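 cells exposed to compound for 48 h; stained nuclei by imaging scaled within each plate; lower means fewer cells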
HSV augment primary fold: recorded beside HSV augment, whose call it bears; fold increase; compound at 10 µM; measured here: primary screen fold increase 10 uM; tested in PC3 cells;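 GFP signal in the first replicate; 1 = infected wells without compound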
Numbers without * were called inactive; i = inactive; ? = inconclusive; . = no result given.

SMILES | RGS16-Gao HTS | GALR2 ag | HSV augment | HSV augment primary fold | Insulin prom inh | Insulin prom inh cell count | PKD1 inh
CCOc1ccc(S(=O)(=O)NCCC(=O)OC(C)C(=O)N2CCc3ccccc32)cc1 (centres undefined) | 97.5 | -1.6 | i | 0.85 | . | . | -14.4
Cc1nc2ccccn2c1C(=O)NN=C1C2CC3CC(C2)CC1C3 | 102.4 | -1.3 | i | 0.95 | -21.9 | 167.5 | -3.9
O=C(NC1CC1)C1CCCN1C(=O)NC1CCCCC1 (centres undefined) | 103.5 | . | i | 1.05 | . | . | -1.1
Cc1ccc(S(=O)(=O)N2CCCOC2CNC(=O)C(=O)NCc2cccnc2)cc1 (centres undefined) | 108.7 | -0.2 | i | 1.11 | . | . | -6.3
COc1cc2[nH]c(=O)n(Cc3ccc(C(=O)NCCCN4CCN(C)CC4)cc3)c(=O)c2cc1OC | 93.5 | -1.8 | i | 0.93 | 34.5 | 113.1 | -1.6
CCOc1ncccc1C(=O)OCc1ccc([N+](=O)[O-])cc1 | 101.5 | . | i | 0.94 | 20.0 | 76.0 | 3.3
O=C(CN1CCN(Cc2ccc3c(c2)OCO3)CC1)N1CCc2[nH]c3ccccc3c2C1 | 107.7 | -0.6 | i | 0.93 | . | . | -4.3
CCOC(=O)c1cnn(-c2nc(CC)nc3sc4c(c23)CCC4)c1N | 101.0 | -2.2 | i | 0.99 | 28.6 | 72.4 | -3.2
CC(C)(C)C1(O)CC(C(F)(F)F)=NN1C(=O)CCCc1ccccc1 (centres undefined) | 105.1 | . | i | 0.96 | . | . | -2.3
Cc1ccc(S(=O)(=O)N(C)CC(=O)N2CCc3ccccc32)cc1 | 105.0 | -1.5 | i | 1.1 | 27.3 | 118.3 | -3.4
O=C(CSc1ccccc1F)NC(=O)NCc1ccco1 | 97.2 | . | i | 1.03 | . | . | -4.9
COc1ccc(N2CCN(C(CNS(C)(=O)=O)c3ccco3)CC2)cc1 (centres undefined) | 98.7 | . | i | 0.87 | 2.9 | 103.1 | -2.5
Cc1cc(-c2csc(N)n2)c(C)n1Cc1ccco1 | 98.6 | . | i | 1.07 | . | . | -0.2
COC(=O)c1scc(C)c1NC(=O)/C=C/C(=O)O | 93.4 | . | i | 1.22 | . | . | .
O=C(N/N=C/c1cn[nH]c1-c1ccccc1)c1ccco1 | 98.5 | . | i | 0.95 | 46.1 | 65.0 | 20.6
Cc1c(NC(=O)CCN2C(=O)c3ccccc3C2=O)c(=O)n(-c2ccccc2)n1C | 105.6 | -2.3 | i | 1.12 | 0.0 | 107.6 | -3.3
Cc1ccc(/C=C/C(=O)c2ccc(O)cc2)cc1 | 102.3 | . | i | 0.93 | . | . | .
CC(C)c1nnc(NC(=O)CCC(=O)N2CCN(C3CCCCC3)CC2)s1 | 105.5 | -2.2 | i | 1.13 | . | . | -1.0
COc1ccc(OCC(=O)Nc2cccc(C(C)=O)c2)cc1 | 101.8 | -1.0 | . | . | . | . | -3.5
Cc1ccc2c(Cl)cc(Cl)c(OCC(=O)Nc3ccc(C)c(S(=O)(=O)N(C)C)c3)c2n1 | 100.9 | -0.7 | i | 0.85 | . | . | -10.9
Cc1ccc(-c2nc(NCC3CCCO3)sc2C)cc1 (centres undefined) | 102.1 | . | i | 0.94 | -18.2 | 115.4 | -5.3
COCCCNC(NC(=O)c1ccc(OC)cc1)C(Cl)(Cl)Cl (centres undefined) | 108.0 | . | i | 0.97 | . | . | -0.7
CCOc1ccc(NC(=O)c2ccco2)c([N+](=O)[O-])c1 | 91.7 | 0.1 | i | 0.93 | -23.3 | 111.5 | -4.3
O=C(NCc1ccccc1)c1cc(=O)[nH]c2ccccc12 | 101.7 | -2.0 | i | 0.84 | 0.0 | 109.2 | 1.3
O=C1/C(=C/c2cccs2)N=C(c2cccs2)N1Nc1ccccc1 | 103.7 | -1.6 | ? | . | 0.0 | 185.8 | 4.0
Cc1c(NC(=O)CC2CC(C)OC2=O)c(=O)n(-c2ccccc2)n1C (centres undefined) | . | -0.4 | i | 0.96 | 4.8 | 60.0 | -7.3
CCCn1c(=O)c(F)cn(Cc2ccc(OC)c([N+](=O)[O-])c2)c1=O | 95.8 | -1.9 | i | 1.05 | -3.3 | 102.2 | -17.9
CCC(O)CNC(=O)CCc1nnc(C2(c3ccc(Cl)cc3)CCC2)o1 (centres undefined) | 106.3 | . | i | 0.9 | . | . | 4.0
C=CCn1c(COc2ccc(Cl)cc2)nnc1SCC(=O)NCC(=O)OCC | 105.2 | -2.3 | i | 0.75 | -92.3 | 90.2 | -18.6
O=C(Nc1ccccc1)c1nn(-c2ccccc2)c(=O)cc1C(F)(F)F | 99.3 | -1.3 | i | 1.08 | 6.9 | 58.5 | -14.5
CN(C(=O)COC(=O)c1nc(-c2ccccc2)n(-c2ccccc2)n1)C1CCS(=O)(=O)C1 (centres undefined) | 91.9 | -1.4 | i | 0.92 | 29.0 | 73.3 | 0.6
CC(NC(=O)CCC(=O)c1ccc(F)cc1)C1CC2CCC1C2 (centres undefined) | 97.2 | . | i | 0.97 | . | . | -7.0
Cc1ccc(NC(=O)C(=O)c2c(-c3ccccc3)cc3ccccn23)cc1S(=O)(=O)N1CCOCC1 | 106.7 | -1.9 | i | 0.86 | -26.1 | 113.9 | 5.2
CCCC(=O)N1CCN(c2ccc(NC(=O)c3ccc([N+](=O)[O-])o3)cc2Cl)CC1 | 108.9 | . | i | 0.69 | . | . | 9.1
CN(C)c1ccc(C(=O)OCc2ccc(Br)cc2)cc1 | 103.5 | -1.2 | i | 0.96 | -27.6 | 84.0 | 4.0
COC(=O)c1ccccc1NC(=O)NCc1ccccn1 | 101.3 | 0.5 | i | 0.97 | 1.2 | 147.1 | -0.1
CCOC(=O)N1CCN(C(=O)CSc2nc3c(c(=O)n2-c2ccccc2OC)SCC3)CC1 | 118.3 | -0.6 | i | 1.15 | -33.3 | 131.3 | 0.2
CC(C)(C)NC(=O)c1ccc(NC(=O)C2COc3ccccc3O2)cc1 (centres undefined) | 94.5 | 0.4 | i | 0.94 | -9.4 | 104.0 | 1.6
O=S(CC(O)COCc1ccc(Cl)cc1)c1ccccn1 (centres undefined) | 80.5 | -2.3 | i | 1.15 | -150.0 | 102.8 | -3.2
CCOC(=O)c1cccc(NC(=O)CCS(=O)(=O)c2cccc3nsnc23)c1 | 102.0 | -1.2 | . | . | . | . | 68.9*
COc1ccccc1CNC(=O)CCS(=O)(=O)c1cccc2nonc12 | 114.1 | -0.7 | i | 0.94 | -10.7 | 114.2 | 0.8
CCOC(=O)CCc1c(C)nc(-n2[nH]c(C)c(CCO)c2=O)[nH]c1=O | 132.4 | . | i | 1.05 | 63.6 | 76.2 | -2.4
O=C(Nc1ccnc(=O)[nH]1)c1sc2ccccc2c1Cl | 93.2 | . | i | 0.94 | . | . | .
COc1ccc(NC(=O)CC2COc3ccccc3O2)c(OC)c1 (centres undefined) | 95.2 | -1.5 | i | 1.05 | 34.3 | 89.7 | -7.2
CCOC(=O)c1c(C)[nH]c(C(=O)N/N=C\c2ccccc2O)c1C | 72.9 | -1.5 | i | 0.91 | . | . | -0.7
O=C(NCc1ccco1)c1cccc(-c2nnc(-c3ccccc3)o2)c1 | 98.3 | -0.8 | i | 0.927 | 3.6 | 84.4 | 10.0
COC(=O)C(NNc1ccccc1)(NC(=O)c1ccccc1F)C(F)(F)F (centres undefined) | 102.4 | -0.6 | i | 0.9 | . | . | -8.8
S=C(Nc1ccc(Nc2ccccc2)cc1)Nc1ccccn1 | 101.0 | . | i | 0.88 | 23.1 | 131.1 | 1.5
COc1cc(CNCCO)ccc1OC1CCCC1 | 99.8 | -0.8 | i | 0.97 | 46.7 | 90.3 | 7.4
Cc1ccc(-n2nnnc2CCl)cc1 | 101.8 | . | i | 0.97 | . | . | -3.8
CCCCNC(=S)NNC(=O)c1csc(C)c1CC | 98.7 | -1.2 | i | 0.99 | -7.1 | 102.5 | -7.6
CN(C)/C=C1\SC(=S)N(c2ccc(Br)cc2)C1=O | 98.7 | . | ? | . | . | . | .
O=C(c1cc(S(=O)(=O)N2CCOCC2)ccc1Cl)N1CCN(c2ccccn2)CC1 | 98.8 | . | i | 0.77 | . | . | -1.5
CCOC(=O)C1C(=O)CC(C)(O)C(C(=O)OCC)C1c1cccs1 (centres undefined) | 100.9 | -0.3 | i | 1.35 | -29.4 | 117.3 | -9.7
Cc1sc(NC(=O)c2ccco2)c(C(c2cccnc2)N2CCN(CCO)CC2)c1C (centres undefined) | 102.6 | . | i | 0.91 | -5.9 | 96.6 | -1.8
Cc1cccc(C)c1NC(=O)C(C)N1CCCCC1 (centres undefined) | 97.2 | . | i | 1.19 | . | . | .
Cc1cc(C)cc(-n2nnn(C3C/C(=N/NC(N)=S)C4OCC3O4)c2=S)c1 (centres undefined) | 99.7 | . | i | 1.16 | 17.6 | 162.0 | -5.2
O=C(CCCOc1ccccc1)Nc1ccccc1C(F)(F)F | 70.8 | -1.1 | i | 0.9 | -66.7 | 63.4 | 11.0
COc1ccc2[nH]c(=O)c(C(c3nnnn3C(C)(C)C)N(Cc3ccco3)CC3CCCO3)cc2c1 (centres undefined) | 105.3 | -0.9 | i | 1.02 | 28.6 | 24.9 | -8.9
Cc1csc(NC(=O)CSc2nnc(NC(=O)COc3ccc(Cl)cc3)s2)n1 | 86.7 | 4.3 | i | 0.82 | 18.5 | 108.6 | 3.7
(next part)
SMILES | RGS16-Gao HTS | GALR2 ag | HSV augment | HSV augment primary fold | Insulin prom inh | Insulin prom inh cell count | PKD1 inh
CC(=O)Nc1ccc(SCC(=O)c2cc(C)n(Cc3cccs3)c2C)cc1 | 51.7 | -1.6 | . | . | 57.1 | 46.6 | -5.0
COC(=O)c1cc2ccsc2n1CC(=O)N(C)C1CCCCC1 | 100.4 | -1.2 | . | . | -50.0 | 63.2 | 5.9
COc1ccc(-c2nc(NC(=O)C3CC(=O)N(c4ccc5c(c4)OCCO5)C3)sc2C)cc1 (centres undefined) | 109.5 | 0.8 | i | 0.76 | -3.2 | 96.1 | 4.7
O=C(NCCN1CCN(c2ccccc2)CC1)c1cccn2c(=O)c3cc(Cl)ccc3nc12 | 112.8 | 1.2 | i | 0.73 | . | . | -2.2
O=C(O)CN1C(=O)S/C(=C\c2cccnc2)C1=O | 106.0 | . | i | 0.98 | . | . | .
COc1ccccc1NS(=O)(=O)c1cc([N+](=O)[O-])ccc1N/N=C/c1c(C)[nH]c2ccccc12 | 138.6 | -4.7 | ? | . | -260.0 | 60.3 | -9.3
O=C(Cn1c(SCc2ccccc2)nc2ccccc21)N1CCOCC1 | 104.7 | -1.4 | i | 0.91 | -16.7 | 133.8 | 2.6
O=C(/C=C/c1cc[n+](CC(=O)c2ccc3cccc4c3c2CC4)cc1)c1ccc2cccc3c2c1CC3 | 100.0 | . | i | 0.93 | . | . | .
CN(C)C(/C=C/Nc1ccc(C#N)cc1)=C(C#N)C#N | 98.8 | -1.2 | i | 0.85 | 48.1 | 120.0 | -5.5
c1ccc(-c2ccc(Oc3cc(N4CCOCC4)nc(-c4ccccc4)n3)cc2)cc1 | 100.9 | -2.1 | i | 1.02 | -9.1 | 98.3 | -13.6
N#Cc1ccc(C(=O)Nc2cccc3cccnc23)c(F)c1 | 103.5 | . | i | 0.65 | . | . | -3.2

High-throughput results deposited in PubChem BioAssay by several laboratories.
